SARS PLpro yeast = blocks SARS-CoV papain-like protease in a yeast assay; AID 485353; Potency, µM (series often up to 32.9 µM), without a hit: top-dose activity, positive = growth rescue; S. cerevisiae expressing SARS-CoV PLpro, growth rescue; control for the full effect not named in the record; hit rate 0.19% among 330,000; also: 0% is about no effect; nearly all actives have a fitted effect of over 55% in size; growth read by luminescence after 48 h
StopGo reporter = lowers the luciferase signal of an FMDV 2A StopGo reporter; hit rate 1.2% among 410,000; Potency, µM (titrated, usually from 57.9 µM), for the others: at the highest dose signal change, negative = less light; human cells with a luciferase reporter of 2A StopGo recoding; control for the full effect not named in the record; active = well fitted falling curve with a large enough effect; inconclusive = small, poorly fitted or top-dose-only effect; inactive = no such curve, though single readings can be large or run the other way; tested in HEK293T cells; also: % is scaled to controls: 0 for no effect and ±100 for the full control effect; nearly all actives have a fitted effect of over 45% in size; luciferase light after 4 h
NS1 inh = blocks influenza NS1 protein function. S. cerevisiae slowed by influenza A NS1, growth recovery by OD600. Potency, µM (highest dose often 46.1 µM), for the others: at the top dose activity, positive = more growth. hit rate 0.4% among 270,000; also: actives are rising curves; nearly all actives have a fitted effect of over 50% in size
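A cell-based growth assay was used: compounds that relieve NS1-induced slow growth of budding yeast raise OD600. Assay medium was yeast nitrogen base with ammonium sulphate and -URA supplement, pH 6.0, with 2% galactose.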
Cruzain noTriton = cruzain (T. cruzi) inhibition without detergent. P25779. purified cruzain, Z-FR-AMC fluorescence, no detergent. Potency, µM, without a hit: max response, negative = inhibition, usual class: inhibitors. hit rate 2.3% among 200,000. AID 1476; active = well fitted curve in the direction sought with a large enough effect; inconclusive = small, poorly fitted or top-dose-only effect, or another doubt; inactive = no such curve, though single readings can be large; an effect the other way counts as inactive or inconclusive;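 also: plate controls were enzyme without inhibitor for no effect and buffer without enzyme for full effect; nearly all actives have a fitted effect of over 40% in size; top concentration of the series not given in the record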
Target sequence (P25779 123-467 limits assumed): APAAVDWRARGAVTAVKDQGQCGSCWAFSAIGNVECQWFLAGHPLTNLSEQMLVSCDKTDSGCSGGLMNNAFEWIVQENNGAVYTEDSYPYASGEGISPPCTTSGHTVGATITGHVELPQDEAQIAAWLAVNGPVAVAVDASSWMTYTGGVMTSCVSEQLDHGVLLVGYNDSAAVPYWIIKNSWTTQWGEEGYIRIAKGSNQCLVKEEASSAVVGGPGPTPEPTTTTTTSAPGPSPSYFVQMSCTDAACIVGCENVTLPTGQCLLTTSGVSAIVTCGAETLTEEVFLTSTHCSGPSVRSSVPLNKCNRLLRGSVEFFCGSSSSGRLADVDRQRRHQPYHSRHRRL
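Purified cruzain at 1.5 nM, pre-incubated 15 min with compound at room temperature in 100 mM sodium acetate pH 5.5, 5 mM DTT, 0.00005% Triton X-100. Reaction started with 2 uM Z-FR-AMC; AMC fluorescence increase over 60 s gives rate.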
Cruzain inh Det = cruzain (T. cruzi) inhibition with detergent; purified cruzain, Z-FR-AMC fluorescence, 0.01% Triton; Potency, µM, for inactives: max response, negative = inhibition, usual class: inhibitors; hit rate 0.43% among 200,000; active = well fitted curve in the direction sought with a large enough effect; inconclusive = small, poorly fitted or top-dose-only effect, or another doubt; inactive = no such curve, though single readings can be large; an effect the other way counts as inactive or inconclusive;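 also: plate controls were neutral wells for no effect and buffer without enzyme for full effect; nearly all actives have a fitted effect of over 40% in size; top concentration of the series not given in the record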
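Read-out: AMC fluorescence (360 nm excitation, 450 nm emission), four reads over 2 min, first-to-third difference used. Conditions: cruzain 1.5 nM, Z-FR-AMC 2 uM, pH 5.5 acetate, 5 mM DTT, 0.01% Triton X-100.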
RE007 growth inh = less growth of the S. pombe RE007 Vpr strain; Potency, µM (top dose mostly 92.2 µM), for the others: top-dose activity change, negative = less growth; AID 651644; hit rate 0.21% among 360,000; S. pombe RE007 Vpr strain, BacTiter-Glo ATP luminescence, 24 h; control for the full effect not named in the record; active = well fitted falling curve with a large enough effect; inconclusive = small, poorly fitted or top-dose-only effect; inactive = no such curve, though single readings can be large or run the other way;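 also: % is scaled to controls: 0 for no effect and ±100 for the full control effect; nearly all actives have a fitted effect of over 50% in size; the assay follows cell death caused by Vpr and the record does not say whether a fall means rescue or toxicity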
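Fission yeast RE007 carrying one integrated HIV-1 vpr copy, seeded at OD 0.01 in PMG+AL medium with 23 nL pinned compound. Grown 24 h at 30 degrees; viability read by BacTiter-Glo luminescence after 5 min.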
MARV entry inh = blocks Marburg virus binding to or entry into cells; Potency, µM (highest dose often 37.8 µM), for inactives: at the highest dose activity change, negative = inhibition, hits mostly inhibitors; AID 540276; hit rate 1.8% among 300,000; Marburg virus pseudotyped entry inhibition, cell reporter; control for the full effect not named in the record; about a third of the inactives were read at about 46 µM; active = well fitted inhibition curve with a large enough effect; inconclusive = small, poorly fitted or top-dose-only effect, or effect the other way; inactive = flat fitted curve, though single readings scatter; tested in HEK293 cells; about a fifth of its hits are not listed in these tables; also: % is scaled to controls: 0 for no effect and ±100 for the full control effect; luciferase read-out
LASV entry inh = Lassa virus entry inhibition. Lassa virus pseudotype entry inhibition, cell reporter; control for the full effect not named in the record. Potency, µM (highest dose often 37.9 µM), for the others: at the top dose activity change, negative = inhibition, hits mostly inhibitors. hit rate 1.2% among 300,000. AID 540256; active means well fitted inhibition curve with a large enough effect; inconclusive means small, poorly fitted or top-dose-only effect, or effect the other way; inactive means flat fitted curve, though single readings scatter; tested in HEK293 cells; also: % is scaled to controls: 0 for no effect and ±100 for the full control effect; nearly all actives have a fitted effect of over 50% in size; luciferase read-out
* hit, by the source's call; ? = inconclusive; / = no result given; & = joins results of further samples; [ ] = remark or other dose. Unless noted, calls follow the shape of the dose curve; as a rule, active means well fitted rising curve with a large enough effect; inconclusive means small, poorly fitted or top-dose-only effect; inactive means no such curve, though single readings can be large or run the other way. Potency is read from the fitted curve at half-maximal effect.

Order of values – SARS PLpro yeast, StopGo reporter, NS1 inh, Cruzain noTriton, Cruzain inh Det, RE007 growth inh, MARV entry inh, LASV entry inh
- COCCN(C(=O)Cc1ccc(OC)c(OC)c1)c1nc(-c2cc(OC)ccc2OC)cs1
 : 4.7%, -19.4%, 17.6%, /, /, 0.4%, /, /
- COc1ccc(-n2cc(CNCCN3CCOC3=O)c(-c3ccccc3Cl)n2)cc1
 : 1.0%, -3.5%, 0.1%, /, /, -9.2%, /, /
- CC(C)(CNC(=O)c1ccc(Cl)c(S(=O)(=O)N2CCc3ccccc3C2)c1)N1CCOCC1
 : -0.8%, 12.6µM*, -1.6%, /, /, -3.1%, ?, 11.2µM*
- C/C(CC(=O)Nc1ccc(F)cc1)=N\NC(=O)COc1ccccc1
 : -23.8%, 24.4%, ?, 9.2%, -3.3%, -15.3%, 10.0%, 13.6%
- CN(C)CCOC1c2ccccc2CCc2ccc3ccccc3c21 (stereo not drawn)
 : /, ?, /, /, /, 18.9%, 5.01µM*, ?
- O=C(O)c1ccc(S(=O)(=O)N2CCC(Cc3ccccc3)CC2)cc1
 : 1.4%, -21.0%, -10.5%, /, /, -0.3%, /, /
- CCn1cc(S(=O)(=O)NC(C)c2cc(OC)ccc2OC)cn1 (stereo not drawn)
 : 3.8%, -0.6%, -3.2%, /, /, 5.0%, -15.2%[46.1 µM], ?
- Nc1cccnc1S(=O)(=O)c1ccccc1
 : -0.1%, 10.8%, 1.4%, /, /, -6.1%, 0.1%[46.1 µM], ?
- CCOc1ncccc1C(=O)OCC(=O)N1CCc2ccccc21
 : 1.1%, 16.9%, 7.1%, /, /, 9.8%, 13.3%[46.1 µM], 12.2%[46.1 µM]
- O=C(CSc1nnc(SCc2cccc3ccccc23)s1)Nc1ccc(C(=O)O)cc1
 : -0.5%, 23.3%, 1.3%, /, /, -7.2%, -15.0%[46.1 µM], 9.9%
- COc1ccc(Br)cc1C(=O)Nc1ccc(C(=O)O)cc1
 : -1.0%, 8.6%, -30.5%, /, /, -17.9%, -0.1%[46.1 µM], 5.5%[46.1 µM]
- Cc1ccc(-n2cccn2)c(CN2CCCC(CNC(=O)c3ccc(F)cc3)C2)c1 (stereo not drawn)
 : -0.8%, -15.8%, 5.4%, /, /, -17.4%, ?, 12.7%[46.1 µM]
- COc1cccc(C=O)c1OCCN1C(=O)c2ccccc2C1=O
 : -13.1%, -1.1%, 1.2%, /, /, 16.4%, /, /
- COc1cc(Cl)ccc1OCc1cc(C(=O)N2C[C@@H]3CCC[C@H]2C3)no1
 : -3.3%, 12.6%, -14.6%, /, /, -22.9%, 6.0%, -23.4%
- Clc1ccc(SCCCN2CCCCC2)cc1
 : -2.8%, -8.5%, 0.4%, /, /, 0.5%, /, /
- CN(CC(=O)Nc1cccc(F)c1)C(=O)CCCc1nc2ccccc2c(=O)[nH]1
 : 3.1%, 1.3%, /, /, /, -13.5%, -0.2%, 2.1%
- Cc1cc(C(F)F)nn1CC(=O)NC1CCCC1
 : -5.8%, -5.7%, 5.6%, /, /, -13.3%, 12.7%, -0.6%
- CCN(CC)c1ccc(NC(=O)Nc2cccc3ccccc23)cc1
 : 7.4%, 55.7%[activator], 1.5%, /, /, -12.3%, ?, -10.2%
- CN(c1ccccc1)S(=O)(=O)c1cccc(NC(=O)CSc2n[nH]c(N)n2)c1
 : 0.4%, ?, 5.9%, /, /, -16.0%, ?, -25.7%
- CC(Oc1ccccc1)C(=O)N1CCN(c2ccc(N3CCCCCC3)nn2)CC1 (stereo not drawn)
 : -3.4%, -27.6%, /, /, /, 1.5%, 6.7%, 22.4%
- O=C(Nc1ccc(Br)cc1)N1CCCCCCC1
 : 0.4%, 17.2%, 5.0%, 4.1%, 1.1%, -1.4%, ?, -4.6%
- O=C1/C(=C/c2cccc(O)c2)SC(=S)N1CC1CCCO1 (stereo not drawn)
 : 1.9%, 16.4%, -4.8%, /, /, 6.2%, -0.6%[46.1 µM], -13.4%
- c1csc(CSc2nc3ccccc3s2)c1
 : -5.1%, /, -0.1%, -11.2%, 3.4%, -20.5%, ?, 22.3%
- COCCNC(=O)c1c[nH]n2c(=O)cc(C3CCN(C(=O)OC(C)(C)C)CC3)nc12
 : -9.3%, -12.0%, -4.1%, 18.6%, -1.3%, -13.1%, /, /
- COC(=O)Nc1nc2ccccc2[nH]1
 : /, 19.7%, /, -3.9%, -1.0%, -1.1%, 20.3%, -3.3%
- NNc1cc(C(=O)O)ccc1Cl
 : -0.5%, -15.4%, -0.7%, /, /, -3.5%, -2.8%[46.1 µM], -24.7%
- Cc1ccc(-c2nn(C)c(=O)c3ccccc23)cc1S(=O)(=O)N1CCOCC1
 : 0.5%, 4.6%, -0.4%, 29.8%, -6.0%, -10.5%, -7.6%, -14.5%
- O=C(CN(Cc1ccco1)C(=O)CCC(=O)Nc1ccccn1)NCCc1ccccc1
 : 4.0%, -0.8%, 0.1%, 11.1%, -0.4%, -17.3%, ?, 1.0%
- COCCNC(=O)c1ccc2c(c1)ncn2-c1cc(C)ccc1OC
 : /, -21.4%, /, -0.5%, 1.6%, /, /, 8.3%[46.1 µM]
- CC(Nc1nc(N2CCOCC2)nc2ccccc12)c1ccccc1 (stereo not drawn)
 : 4.9%, -13.8%, /, /, /, -21.1%, ?, -28.7%
- O=C(NCC1CCCO1)c1cccc(Oc2ccc([N+](=O)[O-])cc2Cl)c1 (stereo not drawn)
 : -0.9%, ?, 17.1%, /, /, 11.8%, ?, ?
- Cc1ccc(S(=O)(=O)N2CCN(Cc3ccco3)CC2)cc1C
 : 3.4%, -10.0%, 17.1%, /, /, -5.2%, -1.0%[46.1 µM], 14.3%[46.1 µM]
- CCOc1ccc2nc(C)cc(Nc3cccc([N+](=O)[O-])c3)c2c1
 : -1.0%, -19.4%, 7.6%, -11.6%, -8.5%, -15.0%, ?, ?
- CC(C)(C)c1ccc(C(=O)Nc2ccc(O)c3c(=O)cc(-c4ccccc4Cl)oc23)cc1
 : 1.2%, -10.6%, 6.7%, /, /, -0.3%, /, /
- O=C(Nc1ccc(F)c(Cl)c1)C1CCCN(S(=O)(=O)c2cccc3nsnc23)C1 (stereo not drawn)
 : /, ?, /, -23.5%, -4.9%, /, -2.1%[46.1 µM], -4.3%[46.1 µM]
- Cc1ccccc1Cc1c(C)nc2nc(SCC(=O)NCCCN3CCCC3)nn2c1C
 : -11.6%, -0.7%, 19.0%, /, /, -19.5%, ?, 9.3%[46.1 µM]
- O=C(Nc1cc(Cl)ccn1)C1CCN(S(=O)(=O)c2cccs2)CC1
 : 0.9%, ?, -2.0%, 3.1%, 2.0%, 4.3%, ?, ?
- CCC(=O)Nc1ccc(NC(=O)CCc2ccccc2)cn1
 : -7.6%, 5.2%, -2.3%, /, /, 6.2%, 24.4%[46.1 µM], 7.3%[46.1 µM]
- CCC1CN(C(=O)NCc2cccc(OC)c2)c2cc(Cl)ccc2O1 (stereo not drawn)
 : -6.5%, 0.0%&-10.8%, -1.8%, -12.4%, -6.7%, -7.2%, /, -16.3%[46.1 µM]
- Cc1cc(N2C(=O)C(=O)/C(=C(/O)c3ccccc3)C2c2cccc(Br)c2)no1 (stereo not drawn)
 : /, 1.2%, /, /, /, 4.1%, 8.8%[46.1 µM], 1.3%
- CC1CCc2c(C(=O)NCc3ccccn3)csc2C1 (stereo not drawn)
 : -39.9%, 52.4%[activator], -1.0%, 18.0%, -4.5%, 14.0%, ?, ?
- COc1ccc(C)cc1S(=O)(=O)N(CC(=O)Nc1cccc([N+](=O)[O-])c1)c1ccccc1
 : 7.0%, -15.1%, 20.6%, -6.6%, -1.1%, 17.2%, ?, 2.7%
- O=C1CC(c2cc(F)cc(F)c2)c2cc3c(cc2N1)OCO3 (stereo not drawn)
 : /, -18.0%, /, -2.3%, -4.6%, /, -21.7%[46.1 µM], ?
- CCn1c(SCC(=O)Nc2ccccc2F)nc2c(c1=O)SC(C)C2 (stereo not drawn)
 : 20.4%, -24.3%, -35.4%, -8.5%, -4.5%, 1.8%, /, -2.1%
- Cc1ccc(S(=O)(=O)NNC(=O)CCC(=O)Nc2ccc(C)c(C)c2)cc1
 : 4.5%, 17.0%, -5.0%, 7.4%, 7.0%, 1.6%, 8.9%, 5.6%
- O=C(O)c1ccccc1-c1ncc(-c2ccccc2)o1
 : /, 27.3%, /, /, /, -11.8%, 25.1%[46.1 µM], 6.1%[46.1 µM]
- CCCCCCC(C)OC(=O)Nc1cccc2ccccc12 (stereo not drawn)
 : -2.6%, -11.9%, -8.6%, /, /, -5.6%, /, /
- O=C1CC(c2ccc(Cl)cc2)CC(O)=C1C=NCc1ccc(Cl)c(Cl)c1 (stereo not drawn)
 : -6.4%, ?, 3.3%, ?, 1.5%, 16.9%, -15.2%, ?

5 compounds from above, sorted by SMILES length, largest number first:
Order of values – SARS PLpro yeast, StopGo reporter, NS1 inh, Cruzain noTriton, Cruzain inh Det, RE007 growth inh, MARV entry inh, LASV entry inh
- COc1ccc(C)cc1S(=O)(=O)N(CC(=O)Nc1cccc([N+](=O)[O-])c1)c1ccccc1
 : 7.0%, -15.1%, 20.6%, -6.6%, -1.1%, 17.2%, ?, 2.7%
- O=C(Nc1ccc(F)c(Cl)c1)C1CCCN(S(=O)(=O)c2cccc3nsnc23)C1 (stereo not drawn)
 : /, ?, /, -23.5%, -4.9%, /, -2.1%[46.1 µM], -4.3%[46.1 µM]
- CCOc1ccc2nc(C)cc(Nc3cccc([N+](=O)[O-])c3)c2c1
 : -1.0%, -19.4%, 7.6%, -11.6%, -8.5%, -15.0%, ?, ?
- CCC1CN(C(=O)NCc2cccc(OC)c2)c2cc(Cl)ccc2O1 (stereo not drawn)
 : -6.5%, 0.0%&-10.8%, -1.8%, -12.4%, -6.7%, -7.2%, /, -16.3%[46.1 µM]
- Cc1ccc(S(=O)(=O)N2CCN(Cc3ccco3)CC2)cc1C
 : 3.4%, -10.0%, 17.1%, /, /, -5.2%, -1.0%[46.1 µM], 14.3%[46.1 µM]

High-throughput results from PubChem BioAssay.
